Sa growth inh = inhibitors of Staphylococcus aureus growth at 42 °C; S. aureus RN4220 growth, OD600, 20 h; stronger effect = lower value; relative growth, % (test concentration not listed); 0.53% of 170,000 active; AID 720641;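 active = growth at 42 °C up to 50% and 20 or more points under that at 30 °C, or under 10% at both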;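 note: 300 nL library stock went into each well; scaled to the means of positive and negative controls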
GIV-Gai inh = inhibitors of GIV GBA-motif binding to rat Galpha-i3. Galpha-i3/FITC-GIV peptide fluorescence polarization, 90 min; stronger effect = lower value; scaled: aluminum fluoride 0%, vehicle 100%. percent of control (FP), % (test concentration not listed). 0.42% of 210,000 active. AID 1224905;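 active = replicate mean at 85% of control or lower, very high polarization wells dropped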;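 note: wells of about 15 µL received 100 nL stock; the first replicate is given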
Target sequence (P08753 whole entry, looked up): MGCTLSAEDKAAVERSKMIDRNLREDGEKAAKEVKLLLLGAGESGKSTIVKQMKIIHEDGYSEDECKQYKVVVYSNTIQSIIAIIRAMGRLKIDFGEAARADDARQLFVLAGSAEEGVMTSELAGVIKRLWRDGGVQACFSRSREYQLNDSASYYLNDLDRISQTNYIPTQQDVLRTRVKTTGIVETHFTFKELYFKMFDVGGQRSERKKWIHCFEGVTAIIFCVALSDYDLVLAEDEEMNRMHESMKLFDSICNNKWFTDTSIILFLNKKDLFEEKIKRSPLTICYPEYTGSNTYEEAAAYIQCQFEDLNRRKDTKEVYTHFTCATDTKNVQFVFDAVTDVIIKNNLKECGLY
HCMV NEC inh = inhibitors of HCMV UL50-UL53 nuclear egress complex interaction | HTRF UL50-UL53 interaction, normalized percent inhibition | inhibition, % (no concentration beside the values) | 0.15% of 190,000 active;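 active = both replicates at 50% or more, plus weaker picks with an unusually low signal ratio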;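 note: stock transfer was 100 nL into about 20 µL; 0% = negative control wells and 100% = wells with untagged competitor protein; inactives centre near -12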
Sa growth inh second temp = second read-out of Sa growth inh, no call of its own (marks repeat the call); relative growth, %; measured here: growth at 30 °C;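 optical density after 20 h as mean of two plates; 100% = untreated growth and lower means inhibition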
* hit, by the source's call; . = not tested or not shown; & = joins results of further samples.

mol	Sa growth inh	Sa growth inh second temp	HCMV NEC inh	GIV-Gai inh
CCOC(=O)C1=C(C)NC2=C(C(=O)CCC2)C1c1ccccc1 (stereo unspecified)	85	86	-28	100
CC1N(C)c2cc(NC(=O)c3ccco3)ccc2C1(C)C (stereo unspecified)	76	28	-35	.
CN(CCO)C(=O)c1cc(-c2ccc(Cl)cc2)nc2ccccc12	98	87	-42	.
O=c1[nH]c(CSc2ccccn2)nc2ccsc12	94	66	-10	.
O=C1c2ccccc2S(=O)(=O)c2cc(C(=O)N3CCN(c4ccccc4)CC3)ccc21	111	102	-35	.
CC(C)CCN1NC(C)(C)NC1=S	94	95	4	.
O=C(CSc1nc2ccccc2c(=O)n1C1CCCC1)Nc1cccnc1Cl	111	91	-6	.
Cc1cccc(-n2c(-c3ccco3)nc3c(cnn3-c3ccccc3C)c2=O)c1	97	101	-4	100
CC1=C(C(=O)NCCC(C)C)C2(CCN(S(=O)(=O)c3cccs3)CC2)OC1=O	97	83	-20	103
CCCCn1nnc2sc(-c3ccccc3)cc2c1=O	89	80	-40	129
O=C1c2ccccc2C(=O)N1CCSc1nnc(Cc2cccs2)n1C1CCCCC1	93	78	-42	.
Cc1ccc(CSc2nc3c(-c4ccccc4)c[nH]c3c(=O)[nH]2)cc1	.	.	-18	108
COc1ccc(C2C(C(=O)Nc3ccc(C(F)(F)F)cc3)c3ccccc3C(=O)N2C)cc1 (stereo unspecified)	97	97	.	98
O=C1c2ccccc2C(=O)c2c1n[n+]([O-])n2-c1ccc(F)cc1	63	22	-3	.
COCc1nnc(C(=O)Nc2cccc(C(=O)NCCc3c[nH]c4ccc(C)cc34)c2)s1	.	.	-8	105
CO[C@H]1O[C@@H]2O[C@]3(C)CC[C@@H]4[C@@H](C)CC[C@H]([C@H]1C)[C@]24OO3	.	.	-18	98
Nc1nc(N)c(N)c(=O)[nH]1	.	.	-26	105
C=CCN(Cc1ccc(Cl)s1)c1ncnc2sccc12	103	96	-24	.
COc1ccc(/C=C\C(=O)Nc2c3c(nn2-c2cccc(Cl)c2)CSC3)cc1OC	100	71	.	104
Clc1nnc(N2CCOCC2)c2ccccc12	.	.	-31	105
CCOc1ccc(C(CC(=O)O)N2Cc3ccccc3C2=O)cc1OC (stereo unspecified)	100	87	-19	105
CCCc1[nH]n(-c2nc3ccccc3s2)c(=O)c1C(C)=Nc1cc(Cl)ccc1O	.	.	-21	106
Nc1ccc(C(=O)NCc2ccccc2)cc1	106	96	0	103
NC(=O)c1ccccc1OCC(=O)N1CCCC1c1ccc2c(c1)OCCCO2 (stereo unspecified)	79	89	2	.
C/C(N)=C(/C#N)C(=O)CSc1nnc(N)s1	86	90	8	.
Cc1ccc([N+](=O)[O-])c2c1NC(c1ccc(Br)cc1)C1CC=CC21 (stereo unspecified)	.	.	-30	102
CC1CCN(S(=O)(=O)N2CCC(C(=O)NCCC3=CCCCC3)CC2)CC1	96	95	-1	98
O=C(O)CNC(=S)N(Cc1cccs1)C1CCCC1	94	106	-8	111
COC(=O)c1ccc(NC(=O)n2ncc3c(C)cccc32)cc1	116	86	-12	104
Cc1cccc(N(C)c2nc3ccc(C(=O)c4ccccc4)cc3n3c(C)nnc23)c1	96	86	.	96

2 of the compounds above, with two lines to a compound.
Below each compound – Sa growth inh	Sa growth inh second temp	HCMV NEC inh	GIV-Gai inh
- Nc1ccc(C(=O)NCc2ccccc2)cc1
    106	96	0	103
- Nc1nc(N)c(N)c(=O)[nH]1
    .	.	-26	105

Structures above containing a furan ring, fused or not, in the order listed:
mol	Sa growth inh	Sa growth inh second temp	HCMV NEC inh	GIV-Gai inh
CC1N(C)c2cc(NC(=O)c3ccco3)ccc2C1(C)C (stereo unspecified)	76	28	-35	.
Cc1cccc(-n2c(-c3ccco3)nc3c(cnn3-c3ccccc3C)c2=O)c1	97	101	-4	100

Further structures follow.
mol	Sa growth inh	Sa growth inh second temp	HCMV NEC inh	GIV-Gai inh
CCN(CC)c1ccc(NC(=O)CN2C(=O)c3cccnc3Sc3ccccc32)c(C)c1	89	92	.	101
Cn1cc(CC(=O)N2CCN(c3ccc(Cl)cc3)CC2)c2ccccc21	69	47	.	99
Cc1ccc(-c2cn3ccc(C)cc3n2)cc1	98	83	-7	100
COc1cc(/C=C/C(=O)OCC(=O)Nc2ccc(NC(C)=O)cc2)ccc1O	115	93	-31	.
CC(C)(C)n1cnc2cc(NS(=O)(=O)c3ccccc3)ccc21	100	87	-7	106
O=C(NC1CCN(C(=O)NC2CCCCC2)CC1)c1ccc(F)cc1	118	101	4	104
O=S(=O)(Nc1ccc(Oc2ccc(Cl)cc2C2CCCCC2)nc1)c1cccc2nonc12	76	56	-15	108
COc1cccc(-c2nnc(SCC(=O)N3CCCCC3C)o2)c1 (stereo unspecified)	88	60	-14	104
S=C1NN(c2ccccc2)C2=C(CCC2)S1	93	81	-14	.
COc1ccc2cc3cc(C(=O)NCCC(C)C)sc3nc2c1	88	68	.	100
O=C(CSc1cn(CC(=O)N2CCOCC2)c2ccccc12)Nc1ccccc1	120	89	.	103
O=C(NCC(=O)N1CCSc2ccccc21)c1ccccc1F	90	88	-13	.
O=c1c2sc3ccccc3c2n(Cc2cccc(F)c2)c(=O)n1CCc1ccccc1	104	87	-27	106
Cc1cc(=O)n(Cc2ccc(Br)cc2F)c2c1c(C)nn2-c1ccccc1	81	86	.	98
CC(O)/C=C/c1ccncc1 (stereo unspecified)	102	88	-152	96
N=c1c(C(=O)NC2CCCCC2)cc2c(=O)n3ccccc3nc2n1Cc1cccnc1	86	84	.	103
Cc1ccc(N(CC(=O)NC2CCCC2)C(=O)c2ccc(N3CCCC3)nc2)cc1	116	94	-11	104
CCc1ccc(NC(=O)c2cc3c(=O)[nH]c4ccccc4c3n2C)cc1	88	87	.	102
COc1ccc(-c2cc(-c3ccccc3O)nc(NC(N)=S)n2)cc1	94	84	51*	.
COc1ccc(C2C=C(c3ccccc3)Nc3nc(NC(=O)/C=C/c4ccccc4OC)nn32)cc1 (stereo unspecified)	84	76	-20	110
CCCc1ncc(C(=O)c2ccc(OC)cc2)n1C	120	102	-10	103
CCN(CC)S(=O)(=O)c1cc(-c2cc(C(=O)NC3CC3)no2)ccc1OC	104	83	-24	109
CC(C#N)OC(=O)/C=C/c1ccc2ccccc2n1 (stereo unspecified)	82	93	12	.
COCCN1Cc2cccc(C(=O)NCc3ccco3)c2C1=O	98	96	0	96
N#C/C(=C\Nc1ccc2c(c1)C(=O)OC2)C(=O)c1ccccc1	100	87	-23	103
Cc1nc(C(F)(F)F)nc(Sc2ccccc2Cl)c1Oc1ccccc1	95	83	-28	100
O=S(=O)(c1ccc(-n2cnnn2)cc1)N1CCN(c2ccccn2)CC1	.	.	11	105
Cc1cc(C(F)(F)F)cc(N(C)NC2OC(=O)c3ccccc32)n1 (stereo unspecified)	100	87	-7	103
CCc1noc(C)c1C(=O)Nc1ccc(N(C)C)cc1	85	98	-14	.
O=C(c1cc(S(=O)(=O)N2CCCC(C(=O)N3CCN(c4ccccc4)CC3)C2)c[nH]1)N1CCCC1 (stereo unspecified)	.	.	-11	103

Looked up by structure from the entries so far:
mol	Sa growth inh	Sa growth inh second temp	HCMV NEC inh	GIV-Gai inh
COc1ccc(C2C=C(c3ccccc3)Nc3nc(NC(=O)/C=C/c4ccccc4OC)nn32)cc1 (stereo unspecified)	84	76	-20	110
O=C(NC1CCN(C(=O)NC2CCCCC2)CC1)c1ccc(F)cc1	118	101	4	104
Cc1nc(C(F)(F)F)nc(Sc2ccccc2Cl)c1Oc1ccccc1	95	83	-28	100
N#C/C(=C\Nc1ccc2c(c1)C(=O)OC2)C(=O)c1ccccc1	100	87	-23	103
COc1cccc(-c2nnc(SCC(=O)N3CCCCC3C)o2)c1 (stereo unspecified)	88	60	-14	104

(continued)
mol	Sa growth inh	Sa growth inh second temp	HCMV NEC inh	GIV-Gai inh
CCc1nnc(NC(=O)CSc2nc3c([nH]c4ccccc43)c(=O)n2-c2ccc(Cl)cc2)s1	126	86	.	99
CCCCCOC(=O)C1=C(C)NC(=O)NC1c1cc2c(cc1Br)OCO2 (stereo unspecified)	.	.	-16	105
O=C(C1CC(=O)N(C2CCCCC2)C1)N1CCOCC1 (stereo unspecified)	97	111	6	109
CCC(CC)NC(=O)c1ccc(OCc2c(C)noc2C)c(OC)c1	91	97	-6	.
CCc1c(O)nc(SCC(=O)NCc2ccco2)n(-c2ccccc2)c1=O	93	95	4	103
NC1=NC2=C(CCCC2)C2(CCCCC2)S1	67	61	-26	102
Cc1ccc2c(c1)C(c1ccccc1)N(C(=O)c1ccc(C)c(C)c1)CC(=O)N2 (stereo unspecified)	129	104	.	102
O=C(Nc1ccc2nc(SCCOc3ccccc3Cl)sc2c1)c1cccs1	97	70	-12	99
O=C(NC1CCCCC1)C1CCCN(C(=O)c2cc(-c3cccnc3)n[nH]2)C1 (stereo unspecified)	.	.	-21	100
CCn1c2ccc(F)cc2c2nnc(NN)nc21	89	30	.	106
COc1ccc(-c2nc(Cn3c(SCc4ccc(F)cc4)nc4cccnc43)c(C)o2)cc1	128	93	.	103
CCOC(=O)c1nc(C)sc1-c1ccnn1S(=O)(=O)c1cccc(Cl)c1	97	90	-25	100
Cn1nc(NC(=O)c2ccc(CSc3ccc(Cl)cc3)o2)c2c(F)cccc21	116	90	-4	110
CC1=C(C)CS(=O)N(S(=O)(=O)c2ccc(C)cc2)C1 (stereo unspecified)	85	48	-32	100
O=C(Nc1ccc(-n2cnnn2)cc1)c1cccc(S(=O)(=O)N2CCc3ccccc3C2)c1	130	61	-62	.
CCOC(=O)CSCc1cn2cc(Cl)ccc2n1	118	88	-9	.
CN(Cc1cccc(O)c1)C1CCCCC1	90	108	-4	102
CCn1c2ccccc2c2nnc(NCCOc3cccc(C(F)(F)F)c3)nc21	107	93	.	104
Cc1ccc(S(=O)(=O)N2C(=O)CCC2C(=O)N(C)C2CCCCC2)cc1C (stereo unspecified)	.	.	13	106
N#CCCN(C(=O)C1CCCCC1)c1ccccc1F	105	90	-20	.
O=C(CSc1nnnn1-c1ccccc1)N/N=C/c1ccc(Cl)cc1Cl	102	79	-15	95
CC1(C)C2CCC(C2)C1(C)NC(=O)CNCc1ccco1 (stereo unspecified)	95	75	-8	102
COc1ccc(OCC(=O)Nc2cc3c(cc2C(=O)O)OCCCO3)cc1	88	93	-18	.
CCN(CC)S(=O)(=O)c1ccc(C(=O)N(c2ccc(C)cc2)C2C=CS(=O)(=O)C2)cc1 (stereo unspecified)	.	.	6	97
Clc1ccc(CCc2ccc(Cl)cc2)cc1	100	98	15	102
CN1C(=O)C2(SCC(=O)N2c2ccc(F)cc2)c2ccccc21 (stereo unspecified)	100	87	.	106
COc1cccc(NC(=O)c2ccnc(N3CCC(C(=O)NCCc4ccccc4)CC3)c2)c1	105	83	-16&-30	104&106
CC(=O)Oc1cc2c(cc1Cl)C(C)(C)CC(C)(c1cc(Cl)c(OC(C)=O)cc1OC(C)=O)O2 (stereo unspecified)	83	78	-10	.
COCCN1Cc2cccc(C(=O)Nc3ccc(OC)c(Cl)c3)c2C1=O	130	96	3	96
FC(F)(F)c1cccnc1NCCNc1ncnc2scc(-c3ccccc3)c12	75	62	-10	107
COc1ccc(-n2nc3c(N4CCC(C(=O)NCCc5ccccc5)CC4)nnc(C)c3c2C)cc1	99	90	.	105
O=C1C2C=NNC2C(=O)N1Cc1ccccc1 (stereo unspecified)	95	82	-15	.
CCOC(=O)N1CCN(c2cnn(-c3nc4ccccc4s3)c(=O)c2Cl)CC1	73	90	-22	106
NC(=O)C(c1ccccc1)c1ccc(C(=O)c2ccccc2)cc1 (stereo unspecified)	.	.	-7	109
Cc1ccc(NC(=O)c2cn(-c3ccccc3)nc2-c2ccccc2)cc1	97	95	7&-6	109&103
N#CC(C(=O)NCCc1ccccc1)c1nc2ccccc2nc1N1CCCCCC1 (stereo unspecified)	104	90	-1	.
O=C(c1cccc(S(=O)(=O)N2CCc3ccccc3C2)c1)N1CCN(c2ccc(O)cc2)CC1	108	89	-7	.
COc1ccc(-c2noc(-c3ccccc3NC(=O)C3CC(=O)N(C4CCCCC4)C3)n2)cc1 (stereo unspecified)	.	.	-33	107
CC(=O)c1ccc(NC2=NS(=O)(=O)c3ccccc32)cc1	98	98	-4	101
CCOc1ccc(-n2c(=O)c3c4c(sc3n(Cc3cccc(Cl)c3)c2=O)CCCC4)cc1	95	92	1	102
CC1CN(Cn2nc(-c3cccc(S(=O)(=O)N(C)C)c3)n(-c3ccc(F)cc3)c2=S)CC(C)O1 (stereo unspecified)	107	95	-7	.
CCc1ccccc1NC(=O)C(=O)NCCc1sc(-c2cccc(C)c2)nc1C	98	86	.	104
N#Cc1c2ncnc(-c3ccccc3)c2n2ccccc12	99	82	-59	170
O=C(c1ccc(-n2cccn2)cc1)N1CCCCC1c1nc2ccccc2s1 (stereo unspecified)	124	75	-4	.
Clc1ccc2nnc(Cc3ccccc3)n2n1	94	89	-55&-90	102&107

From PubChem

Hits appear at their usual frequency; overall some 0.8% were active at least once.
